FGF22 binding = binders of human FGF22 protein, primary screen, FGF22 synaptogenesis inhibitor project, biophysical, thermal shift, single point; Fibroblast growth factor 22 (Homo sapiens), Q9HCT0; recombinant FGF22 thermal shift, SYPRO orange fluorescence; percent of sucrose octasulfate shift, DMSO zero; calls only at 9.99 µM; 1.5% of 340,000 active; AID 651658, 2012;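 active = melting point raised past a set limit in the mean and every replicate; inconclusive = no clear call; three in four hits are not shown here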
Target sequence (Q9HCT0 whole entry, looked up): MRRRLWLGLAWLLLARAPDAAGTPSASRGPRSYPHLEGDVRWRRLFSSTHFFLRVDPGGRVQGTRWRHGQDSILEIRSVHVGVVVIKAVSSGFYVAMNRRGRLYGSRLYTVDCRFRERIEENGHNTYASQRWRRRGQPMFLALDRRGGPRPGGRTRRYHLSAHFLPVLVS
Beta apoptosis = inhibitors of cytokine-induced beta cell apoptosis, primary screen, luminescence. INS-1E cytokine-induced death, ATP luminescence, 48 h; percent of positive-control rescue, neutral wells zero. protection from apoptosis, % (test concentration not listed). 0.8% of 300,000 active. AID 435005, 2010;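 active = all replicates at 75% or more, or half of them and the mean; inconclusive = half reach 75% but not the mean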;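 note: 0% = cytokine-treated negative control wells and 100% = positive control rescue; higher means more ATP so stronger rescue from cytokine killing; wells of about 40 µL received 100 nL stock; the first replicate is given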
MLL AF4-AF9 inh = inhibitors of AF4 peptide binding to AF9, primary screen, biochemical, AlphaScreen, biotin-AF4 peptide, FLAG-AF9, single point; Protein AF-9 (Homo sapiens), P42568; inhibition, % at 10 µM; 0.47% of 350,000 active;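 active = every replicate reaching a set inhibition limit, whatever the replicate mean, cut at about 25% in these data; inconclusive = mean inhibition reaches that limit but some replicates miss it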;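 note: 0% = plate neutral control median and 100% = total signal loss; the record names both 10 and 1 µM as test concentration; the first replicate is given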
Target sequence (P42568 whole entry, looked up): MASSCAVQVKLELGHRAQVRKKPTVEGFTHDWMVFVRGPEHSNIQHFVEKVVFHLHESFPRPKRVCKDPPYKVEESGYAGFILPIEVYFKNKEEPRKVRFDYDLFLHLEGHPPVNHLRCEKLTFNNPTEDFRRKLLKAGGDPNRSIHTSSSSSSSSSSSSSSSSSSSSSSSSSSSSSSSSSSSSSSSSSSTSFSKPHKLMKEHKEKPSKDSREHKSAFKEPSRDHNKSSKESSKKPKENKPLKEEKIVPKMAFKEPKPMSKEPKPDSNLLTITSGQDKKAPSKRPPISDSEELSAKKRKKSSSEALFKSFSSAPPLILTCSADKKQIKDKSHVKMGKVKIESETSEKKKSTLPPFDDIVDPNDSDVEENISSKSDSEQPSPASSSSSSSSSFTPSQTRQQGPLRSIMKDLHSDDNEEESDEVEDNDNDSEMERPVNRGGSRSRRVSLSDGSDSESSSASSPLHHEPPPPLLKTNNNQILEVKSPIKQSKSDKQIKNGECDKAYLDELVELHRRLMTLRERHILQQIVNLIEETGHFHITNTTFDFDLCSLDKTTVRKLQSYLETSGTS
rRNA inh HTS = reduced GFP signal of wild-type E. coli, primary screen, bacterial rRNA inhibitor project, GFP/RFP fluorescence, OD600, single point; E. coli WT GFP vs humanized-ribosome RFP mutants, 24 h; stronger effect = lower value; DMSO median 0, no signal -100; GFP signal change (wild-type ribosome), % (concentration not given with the values); 1.6% of 350,000 active;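 active = significant combined selectivity score with lowered wild-type GFP, culture density cut under 30%, mutant RFP and density less affected; inactive = any of these conditions unmet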; note: one replicate is shown; some compounds called inactive have numbers as strong as hits
ALR inh = inhibitors of human ALR sulfhydryl oxidase, primary screen, biochemical, H2O2 detection, HRP-luminol luminescence, single point. FAD-linked sulfhydryl oxidase ALR (Homo sapiens), P55789. purified ALR, DTT oxidation. inhibition, % (test concentration not listed). 3.8% of 290,000 active;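 active = mean and each replicate at 75% or more; inconclusive = only one of the two met; inactive = neither met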;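 note: stock transfer was 7.5 nL into about 7.5 µL; 0% = neutral wells and 100% = wells with inactivated enzyme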
Target sequence (P55789 whole entry, looked up): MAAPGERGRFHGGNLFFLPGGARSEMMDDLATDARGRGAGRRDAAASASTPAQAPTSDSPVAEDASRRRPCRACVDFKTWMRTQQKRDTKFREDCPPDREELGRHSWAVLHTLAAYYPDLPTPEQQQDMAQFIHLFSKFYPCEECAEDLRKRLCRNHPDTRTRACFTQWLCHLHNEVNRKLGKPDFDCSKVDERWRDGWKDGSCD
T cruzi inh = inhibitors of intracellular T. cruzi growth, primary screen, luminescence, NIH3T3 host cells; T. cruzi beta-gal in NIH3T3, 90 h; inhibition, % (test concentration not listed); 1.4% of 300,000 active; AID 1885, 2009;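 active = mean inhibition across valid replicates above about 55%, limit read from the data; inconclusive = mean below that limit but half or more replicates reach it; inactive = mean below it, under half of replicates reach it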;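 note: signal also drops with host cell toxicity which is not excluded here; 0% = plate median of DMSO wells and 100% = zero luminescence signal; higher percent means less beta-gal luminescence so fewer parasites; stock transfer was 50 nL into about 50 µL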
RanGTP-Impb inh = inhibitors of RanGTP-importin-beta interaction, primary screen, biochemical, FRET, CFP-Ran, YFP-importin-beta, homogeneous. Ran GTPase (GTP-bound) - importin-beta complex. cell-free CFP-Ran/YFP-importin-beta FRET ratio. inhibition, % (test concentration not listed). 1.1% of 300,000 active. AID 2216, 2009;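 active = most replicates above 15%; inconclusive = exactly half above 15%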;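 note: 0% = DMSO wells and 100% = Ran loaded with GDP instead of GTP; wells of about 40 µL received 100 nL stock; the first replicate is given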
Calb FLC = C. albicans growth inhibition with fluconazole, primary screen, CaCi-2 strain, Alamar Blue fluorescence; growth inhibition, % (test concentration not listed); 0.57% of 300,000 active; C. albicans CaCi-2 (fluconazole-resistant clinical isolate) + fluconazole, 48 h;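 active = most replicates above 75%; inconclusive = exactly half above 75%; inactive = most below 75%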;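 note: all wells also contain fluconazole at 8 µg/ml as a sub-toxic cotreatment; 0% = median of DMSO wells and 100% = median of geldanamycin control wells; wells of about 8 µL received 7.5 nL stock; the first replicate is given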
rRNA inh HTS OD600 = also measured in rRNA inh HTS; calls as there; OD600 change, %; measured here: OD600 growth;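 optical density of the mix in the first replicate; 0 = DMSO median and -100 = no signal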
rRNA inh HTS RFP = recorded beside rRNA inh HTS, whose call it bears; RFP signal change, %; measured here: RFP humanized mutant strains;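 first replicate; 0 = DMSO median and -100 = no signal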
* = called active by the depositor; i = inactive; u = inconclusive; x = not tested or not shown. This is a subset (hit frequency here may not be typical).

Compound,FGF22 binding,Beta apoptosis,MLL AF4-AF9 inh,rRNA inh HTS,rRNA inh HTS OD600,rRNA inh HTS RFP,ALR inh,T cruzi inh,RanGTP-Impb inh,Calb FLC
COc1ccccc1C(=O)NCCC(=O)NCCOc1ccccc1,i,-7,-2.6,17,9,1.1,5,-2,-1.0,1
COc1ccc(NC(=O)c2cc(-c3cccs3)on2)cc1,i,-1,-4.4,6,6,1.2,x,13,-0.4,-2
OCc1csc(=Nc2ccccc2)n1-c1ccccc1,x,-3,x,x,x,x,99*,1,u,1
Cc1ccccc1N1C(=O)C2C3C=CC(CC3)C2C1=O (stereo not given),i,1,-2.1,0,1,-2.8,-5,-5,-3.6,-4
O=C(O)c1ccc(NS(=O)(=O)c2cc(Cl)ccc2Cl)cc1O,x,7,x,9,2,0.0,4,2,-14,0
CC(=O)N1CCN(C(=O)COC(=O)COc2c(C)cc(C)cc2C)CC1,i,-2,0.7,4,10,-3.6,-1,x,x,x
CCc1ccccc1NC(=O)CSc1nnc(Cn2cnc3ccccc32)o1,x,-6,x,x,x,x,-5,1,5.0,-2
CC1(C)CC(=O)C2=C(C1)OC(N)=C(C#N)C2c1cccs1 (stereo not given),i,-3,-1.1,16,2,3.4,96*,-3,-0.8,-8
COc1ccc(CC(=O)Nc2c3c(nn2C(C)(C)C)CS(=O)(=O)C3)cc1OC,i,-4,-2.5,13,19,3.4,-14,-9,1.8,6
CC(=O)c1ccc(Sc2nnnn2-c2ccccc2)c([N+](=O)[O-])c1,i,-8,9.5,-15,-22,-16,x,-8,1.5,42
COC(=O)c1c(O)cc(C(C)(C)C)n(-c2ccccc2)c1=O,x,-4,x,x,x,x,-3,-5,3.2,17
Cc1ccc(CS(=O)Cc2ccc(C(=O)NCc3ccccc3Br)o2)cc1 (stereo not given),i,-4,0.9,-10,-30,-4.1,-6,32,-1.6,9
Cc1ccccc1-c1nnc(SCC(=O)NC2CCCCC2)o1,x,-1,x,x,x,x,-7,19,2.0,-13
COc1cccc(CNS(=O)(=O)c2ccc3c(c2)CC(C)N3C(=O)C2CC2)c1 (stereo not given),i,4,-9.8,1,-8,-2.8,-5,-2,1.8,1
Cc1ccc(C2CC(C(F)(F)F)n3nc(C(=O)Nc4c(C)n(C)n(-c5ccccc5)c4=O)cc3N2)cc1 (stereo not given),i,4,-1.5,13,7,-0.1,-3,5,-1.5,-5
Cc1ccccc1S(=O)(=O)Nc1ncnc2scc(-c3ccccc3)c12,x,-8,x,x,x,x,25,-4,1.3,49
CCCCOCCCNC(=O)N[C@H](C(=O)OC)C(C)CC (stereo not given in full),i,x,-3.0,6,11,1.8,-2,3,1.3,-2
COc1ccc(Br)cc1CNC(=O)C1CCN(S(=O)(=O)N2CCCC2)CC1,x,-22,-22,-4,-1,-1.5,0,15,0.5,0
O=C(Cn1c(NCCCO)nc2ccccc21)c1ccc(Cl)cc1Cl,i,5,1.1,-11,-11,0.1,14,-6,-2.7,-5
Cc1cc(C)nc(/N=C(\N)Nc2cccc([N+](=O)[O-])c2)n1,i,-8,2.8,0,-1,1.8,-9,-27,2.6,7
COC(=O)c1ccc(NC(=O)CSc2nnc(-c3ccccc3)n2C)cc1,x,-6,x,x,x,x,x,10,6.1,5
O=c1[nH]c2ccccc2nc1C(F)(F)C(F)F,x,0,x,x,x,x,-4,-4,-4.9,9
Cn1sccc1=O,i,-1,-2.0,x,x,x,-21,x,x,x
NC(=O)C1CCN(C2CC(=O)N(c3cccc(F)c3)C2=O)CC1 (stereo not given),x,-4,x,x,x,x,6,-9,-3.3,-2
Cc1cccc(N=C2NN=C(c3c[nH]c4ccccc34)CS2)c1,i,22,8.5,2,-5,0.0,21,-1,0.4,u
CCc1nnc(NC(=O)c2ccc3c(c2)C(=O)N(C(C)(C)C)C3=O)s1,x,-2,x,x,x,x,-11,3,u,42
Clc1ccc(Oc2cnns2)cc1Cl,x,-8,x,x,x,x,-4,1,u,8
CCCC(=O)Nc1nnc(SCC(=O)NCc2ccc3c(c2)OCO3)s1,i,-2,-0.2,17,13,2.2,x,-4,2.8,3
O=C1CCC([N+](=O)[O-])C(c2ccc(F)c(Br)c2)N1 (stereo not given),i,-1,-0.1,13,17,-1.3,8,-10,2.2,0
Cc1ccc(C(=O)NCC(=O)NCc2ccccc2F)s1,i,-3,-1.0,6,6,-0.9,-3,x,x,x

An excerpt from above, reduced to FGF22 binding, ALR inh and rRNA inh HTS RFP:
structure,FGF22 binding,ALR inh,rRNA inh HTS RFP
CCCC(=O)Nc1nnc(SCC(=O)NCc2ccc3c(c2)OCO3)s1,i,x,2.2
O=C1CCC([N+](=O)[O-])C(c2ccc(F)c(Br)c2)N1 (stereo not given),i,8,-1.3

New compounds follow:
Compound,FGF22 binding,Beta apoptosis,MLL AF4-AF9 inh,rRNA inh HTS,rRNA inh HTS OD600,rRNA inh HTS RFP,ALR inh,T cruzi inh,RanGTP-Impb inh,Calb FLC
CCC1Sc2ccc(S(=O)(=O)CCC(=O)NC3CCCCCC3)cc2NC1=O (stereo not given),i,1,1.5,-10,-15,-4.1,-3,2,-2.2,0
CCOC(=O)[C@H]1[C@H]2COc3cc(OC)ccc3[C@@H]2N2C(=O)N(c3ccc(Cl)cc3)C(=O)[C@@]12C,x,6,x,x,x,x,2,14,2.8,-8
CC(OC(=O)CCC(=O)c1ccc(F)cc1)C(=O)NC1CCCCC1C (stereo not given),i,-7,-1.2,1,12,1.3,-1,24,8.3,-8
CCN(CC(=O)Nc1c(F)cccc1F)C(=O)C1CCCN(C(=O)c2ccc(Cl)cc2)C1 (stereo not given),i,1,0.9,10,14,0.6,-5,0,1.5,-3
Cc1cc(NCCO)c2cc(O)ccc2n1,x,-3,x,x,x,x,4,-7,0.7,0
COc1cc(C2C(C(=O)c3ccc(C)o3)=C(O)C(=O)N2CCCn2ccnc2)cc(OC)c1OC (stereo not given),x,-6,x,x,x,x,-4,-2,2.1,6
CCC(C)C(NC(=O)C1CCC(C)CC1)C(=O)NCc1cccnc1 (stereo not given),x,-9,x,x,x,x,-11,-2,u,-2
CCOC(=O)C(Nc1ccc2ccccc2c1)C(=O)OCC,x,27,x,x,x,x,16,11,2.5,25
COc1ccc(CCNC(=O)/C(C#N)=C2\N=C(NC(=O)c3cccs3)c3ccccc32)cc1,i,-2,0.9,x,x,x,x,-4,3.0,-1
Cc1cccc2[nH]c(CN(C)C(=O)C3CCC(=O)N(C4CC4)C3)nc12 (stereo not given),i,2,-1.7,5,11,-2.0,0,4,-2.4,-2
COc1cccc(NC(=O)N2CCOCC2)c1,x,3,x,x,x,x,-6,-7,0.7,-8
C/C(N)=C(/C#N)C(=O)COC(=O)COc1ccc(Cl)cc1,i,-2,-4.0,8,12,6.2,2,-7,0.4,-4
COc1cccc(/C=N/NC(=S)NCCc2ccccc2)c1OC,i,-6,-23,7,-8,2.0,-1,-7,7.3,5
COc1cccc(C(=O)N2CCN(Cc3ccco3)CC2)c1OC,x,3,x,x,x,x,-3,-8,3.9,6
CC(=O)C(Sc1nc(NC(C)(C)C)nc(N(C)C)n1)C(C)=O,x,-9,x,x,x,x,12,-2,0.7,28

Fetched one by one from above (2):
Compound,FGF22 binding,Beta apoptosis,MLL AF4-AF9 inh,rRNA inh HTS,rRNA inh HTS OD600,rRNA inh HTS RFP,ALR inh,T cruzi inh,RanGTP-Impb inh,Calb FLC
COc1cccc(NC(=O)N2CCOCC2)c1,x,3,x,x,x,x,-6,-7,0.7,-8
CC(OC(=O)CCC(=O)c1ccc(F)cc1)C(=O)NC1CCCCC1C (stereo not given),i,-7,-1.2,1,12,1.3,-1,24,8.3,-8

Next part:
Compound,FGF22 binding,Beta apoptosis,MLL AF4-AF9 inh,rRNA inh HTS,rRNA inh HTS OD600,rRNA inh HTS RFP,ALR inh,T cruzi inh,RanGTP-Impb inh,Calb FLC
c1csc(-c2nc(CN3CCSCC3)cs2)c1,i,-4,4.3,2,5,0.9,-10,-2,-2.3,-4
COC(=O)C1CCN(c2ccc(Cl)nn2)CC1,i,-2,-0.7,10,11,0.2,-2,-1,x,-9
CCOc1ccccc1-c1nc(CN2CCN(C(=O)c3ccco3)CC2)c(C)o1,i,-1,0.0,-1,2,-1.9,2,17,-1.4,-12
Cc1ccsc1/C=N/NC(=O)Cc1cccn1C,i,-10,3.3,x,x,x,x,5,-1.6,0
NC(=O)CC(NC(=O)c1ccc(Br)cc1)c1ccc(N2CCC(Br)CC2)c([N+](=O)[O-])c1 (stereo not given),i,-96,-0.1,5,-6,-5.5,2,-12,1.2,-7
COc1ccc(S(=O)(=O)Nc2c(F)cccc2F)cc1,i,2,-13,18,10,9.7,-2,-7,-2.4,-14
COc1ccccc1/C=C/C(=O)OCC(=O)Nc1ccccc1Sc1ccccc1,i,-6,1.7,2,11,1.7,45,-6,-1.5,20
Cc1ccc(C(=O)NCCCN2CCOCC2)cc1S(=O)(=O)N1CCOCC1,i,-2,-16,5,11,-0.3,x,x,x,x
Cc1ccc2c(C(=O)CN3CC(C)CC(C)C3)c(C)[nH]c2c1 (stereo not given),i,0,1.5,15,16,2.3,11,6,-5.1,-6
COc1cc(C[C@@H](CO)[C@H](CO)Cc2ccc(O)c(OC)c2)ccc1O,x,-2,x,x,x,x,97*,-32,-1.8,x

High-throughput results (PubChem)
